High-throughput results: PubChem, National Center for Advancing Translational Sciences (NCATS)
EPAC1 ag val – Validation qHTS for agonist of cAMP-regulated guanine nucleotide exchange factor 3 (EPAC1); AID 1645883, 2021; EPAC1 Rap1b BODIPY-GDP exchange, fluorescence; 1% of 16,000 active; Potency, µM, for the others: max response, positive = active, most hits filed as activators; active means well fitted activation curve with a large enough effect; inconclusive means small, poorly fitted or top-dose-only effect; inactive means no such curve, though single readings can be large or run the other way;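 further: nearly all actives have a fitted effect of over 70% in size; series mostly up to about 76 or 150 µM; scaled to a cAMP control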
Target sequence (O95398 whole entry, looked up): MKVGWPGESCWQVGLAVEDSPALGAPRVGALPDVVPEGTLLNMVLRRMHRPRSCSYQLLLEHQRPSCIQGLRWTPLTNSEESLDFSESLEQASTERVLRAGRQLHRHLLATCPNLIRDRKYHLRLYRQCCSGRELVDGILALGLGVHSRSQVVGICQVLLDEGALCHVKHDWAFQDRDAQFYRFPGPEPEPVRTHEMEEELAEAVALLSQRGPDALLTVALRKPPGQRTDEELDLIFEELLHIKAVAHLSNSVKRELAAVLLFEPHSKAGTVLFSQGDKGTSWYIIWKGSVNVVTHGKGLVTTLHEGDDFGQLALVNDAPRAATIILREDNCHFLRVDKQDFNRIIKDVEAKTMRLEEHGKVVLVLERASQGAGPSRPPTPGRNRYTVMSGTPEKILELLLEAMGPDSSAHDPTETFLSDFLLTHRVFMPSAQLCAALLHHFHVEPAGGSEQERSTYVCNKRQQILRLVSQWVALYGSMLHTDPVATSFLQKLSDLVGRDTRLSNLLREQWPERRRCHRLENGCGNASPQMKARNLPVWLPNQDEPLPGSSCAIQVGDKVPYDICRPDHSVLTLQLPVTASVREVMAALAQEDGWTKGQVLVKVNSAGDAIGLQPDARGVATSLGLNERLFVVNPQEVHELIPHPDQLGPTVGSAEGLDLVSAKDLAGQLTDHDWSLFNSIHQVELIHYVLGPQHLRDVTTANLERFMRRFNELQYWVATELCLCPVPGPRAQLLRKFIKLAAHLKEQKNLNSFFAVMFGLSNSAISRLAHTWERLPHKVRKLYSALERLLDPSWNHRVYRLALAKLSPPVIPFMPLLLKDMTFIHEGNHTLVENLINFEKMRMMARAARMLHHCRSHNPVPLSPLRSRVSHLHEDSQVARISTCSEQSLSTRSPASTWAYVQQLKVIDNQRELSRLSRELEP
* hit, by the source's call; ? = inconclusive; & = joins results of further samples; [ ] = dose if it differs, or a comment. On the % scale 0 is the no-effect control and ±100 the full control effect; potency means the concentration at half of the fitted maximal effect. This is a subset; rates above refer to the full screens.

SMILES	EPAC1 ag val
CCCCCc1ccc(-c2cn(Cc3ccc([N+](=O)[O-])cc3)nn2)cc1	-32%[inhibitor]
C[C@]12C=CC(=O)C=C1CCC1C2C(=O)C[C@]2(C)C1CC[C@]2(O)C(=O)CO (stereo partly specified)	15%
CC1CC[C@]2(CO)CC[C@]3(C)C(=CCC4[C@@]5(C)CCC(O)C(C)(C)C5CC[C@@]43C)C2C1C (stereo partly specified)	?
COCCn1c(=O)c(-c2ccc(Cl)cc2)nc2cnc(Nc3ccccc3)nc21	-48%[inhibitor]
COc1ccc2ccccc2c1CN1CCc2nnc(C(NS(C)(=O)=O)C(C)C)n2CC1 (stereo unspecified)	-11%
CC(NC(=O)c1cc(F)ccc1F)c1nnc2n1CCN(Cc1ccco1)CC2 (stereo unspecified)	-13%
COc1cccc(CNC(=O)c2c(OC)cc(=O)n3c2CCN(C(=O)c2csc(C)n2)CC3)c1	13%
COc1ccc2cc3[n+](cc2c1OC)CCc1cc2c(cc1-3)OCO2	?
COC(=O)C1=C(C(=O)OC)[C@]2([C@@H]3C/C=C\CN[C@@H](Cc4ccccc4)C(=O)N3Cc3ccccc3)C=C[C@H]1O2	?
CC(C)[C@@H](COc1ccccc1)N1CCN(Cc2ccccc2)CCC1=O	1%
CCc1cc(C(=O)NCc2c(C)ncc3c2CCN(C(=O)C2=CCCC2)C3)no1	-2%
Nc1c2c(nc3c1CCC3)CCCC2	-32%[inhibitor]
C[C@@H]1C[C@@H]2[C@H]3CCC4=CC(=O)C=C[C@]4(C)[C@]3(F)[C@@H](O)C[C@@]2(C)[C@@]1(O)C(=O)CO	-16%
COc1ccc2c(c1)OC/C(=C/c1ccc(OC)c(OC)c1)C2=O	-3%
O=C(C[n+]1ccncc1Cl)c1ccc(F)cc1	28%
CC1(C)C(OC(=O)CCC(=O)O)CC[C@]2(C)C1CC[C@@]1(C)C2C(=O)C=C2[C@@H]3C[C@@](C)(C(=O)O)CC[C@]3(C)CCC21C (stereo partly specified)	?
Cn1cccc1C(=O)N1CCC2(CCCN(C(=O)Nc3cccc(F)c3)C2)CC1	-17%
O=Cc1c2[nH]c3ccccc3c2cc2[nH]c3ccccc3c12	-24%&-13%&-22%
COc1cc([C@@H]2c3cc4c(cc3[C@@H](O[C@@H]3O[C@H]5CO[C@@H](C)O[C@@H]5[C@@H](O)[C@H]3O)[C@@H]3COC(=O)[C@@H]23)OCO4)cc(OC)c1O	13%
CC(C)(C)NCC(O)c1ccc(O)c(CO)n1 (stereo unspecified)	-1%

Another view of part of the listing above.
compound: C[C@]12C=CC(=O)C=C1CCC1C2C(=O)C[C@]2(C)C1CC[C@]2(O)C(=O)CO (stereo partly specified)
  EPAC1 ag val = 15%

compound: CC1CC[C@]2(CO)CC[C@]3(C)C(=CCC4[C@@]5(C)CCC(O)C(C)(C)C5CC[C@@]43C)C2C1C (stereo partly specified)
  EPAC1 ag val = ?

compound: COCCn1c(=O)c(-c2ccc(Cl)cc2)nc2cnc(Nc3ccccc3)nc21
  EPAC1 ag val = -48%[inhibitor]

compound: COc1ccc2ccccc2c1CN1CCc2nnc(C(NS(C)(=O)=O)C(C)C)n2CC1 (stereo unspecified)
  EPAC1 ag val = -11%

Continuation.
SMILES	EPAC1 ag val
Cc1cc(C(=O)NCCc2ccc(S(=O)(=O)NC(=O)NN3CCCCCC3)cc2)no1	7%
Cc1c(CN2CCOc3c(cc(-c4ncc(C(F)(F)F)cc4Cl)cc3OCC3CCCO3)C2)cnn1C (stereo unspecified)	-10%
Cc1cc(C)c2ccccc2n1	?
C(=C\c1nccc2ccccc12)/c1ccc(N2CCOCC2)cc1	100µM*
COc1cc(/C=C/C(=O)N2CCCCC2=O)cc(OC)c1OC	6%
CN(CC1COCCO1)C(=O)c1cnn(-c2ncc3c(n2)-c2ccccc2CCC3)c1C1CC1 (stereo unspecified)	-16%
COc1ccccc1CNc1ncnc2ccc(-c3cccc(C#N)c3)cc12	20%
Cc1nc2cnc(N3CCNCC3)nc2n(-c2ccccc2)c1=O	-10%
Cc1cc(COC(=O)C2N3C(=O)[C@@H](NC(=O)COc4ccccc4)[C@H]3SC2(C)C)on1 (stereo partly specified)	20%
C=CC(C)(C)c1[nH]c2ccccc2c1C1=C(O)C(=O)C(c2c[nH]c3c(CC=C(C)C)cccc23)=C(O)C1=O	-14%
COc1ccc(NC(=O)N2CCC3(CC2)CCN(C(=O)c2ccco2)CC3)cc1	-40%[inhibitor]
CCCOC(=O)c1cc(O)c(O)c(O)c1	9%
CCOC(=O)n1ccn(C)c1=S	-7%&-7%
O=C(CC(=O)c1ccccc1)c1ccccc1	?
COc1ccccc1C1CN(Cc2cccc(C)n2)Cc2ccccc2O1 (stereo unspecified)	15%
N#C/C(=C\c1c[nH]c2ccccc12)C(=O)c1ccc(O)c(O)c1	-8%
O=C(CO)[C@@H](O)[C@H](O)[C@H](O)CO	-71%[inhibitor]
C[C@]12CC[C@@H](O)C[C@@H]1CC[C@@H]1[C@@H]2CC[C@]2(C)C=CC[C@@H]12	5%
Cc1cc2nccc(/C=C/c3ccc(N(C)C)cc3)c2cc1C	?
CC(=O)Nc1ccc(SC[C@H](Cc2ccccc2)N2CC[C@@H](C(C)(C)C)CCC2=O)cc1	-75%[inhibitor]
COc1cc(N)c(NC(=O)/C=C/c2nc3cc(OC)c(OC)cc3[nH]2)cc1OC	-34%[inhibitor]
O=C1CC[C@@H](C(=O)O)N1	-10%
CCOC(=O)C1=C[C@@]2(CC)CCCN3CCc4c(n1c1ccccc41)C32 (stereo partly specified)	6%
CSc1ncccc1C(=O)NCC1Cc2cc(-c3cnccn3)cc(Cl)c2O1 (stereo unspecified)	23%
O=c1c(-c2cccs2)nc2cnc(N3CCOCC3)nc2n1Cc1cccs1	10%
O=C1c2ccccc2C(Cc2ccncc2)(Cc2ccncc2)c2ccccc21	9%
CN(C)CCOC(c1ccccc1)c1ccccc1 (tested in a mixture with another compound)	16%
C[N+](C)(CCCCCC[N+](C)(C)C1c2ccccc2-c2ccccc21)C1c2ccccc2-c2ccccc21	4%
N#CCCn1c(=O)c(CCc2ccccc2)nc2cnc(N3CCOCC3)nc21	-70%[inhibitor]
CN(C)c1ccc(-c2cncnc2-n2ccnc2)cc1	-34%[inhibitor]
COc1cccc(-c2ccc3ncnc(N4CCOCC4)c3c2)c1	-21%
COc1ncccc1C(=O)N1CCOc2ccc(C(O)C(c3ccccc3)c3ccccc3)cc2C1 (stereo unspecified)	0%
COCCn1c(=O)c(-c2cccc(C#N)c2)nc2cnc(N3CCOCC3)nc21	?
Nc1ncnc2c1ncn2[C@@H]1O[C@H](COP(=O)(O)OP(=O)(O)OP(=O)(O)O)[C@@H](O)[C@H]1O	-17%
O=c1n(CCCN2CCN(c3cccc(Cl)c3)CC2)nc2ccccn12	?
O=C1CC[C@@H](O)CCN1CC[C@H](Sc1ccc(Br)cc1)c1ccccc1	-14%
CCN(CC)c1ncnc2c1ncn2[C@@H]1O[C@H](COP(=O)(O)OP(=O)(O)C(Br)(Br)P(=O)(O)O)[C@@H](O)[C@H]1O	-4%
CC1CN(CCC(=O)NCc2ccc3ncccc3c2)Cc2cc(Cl)ccc2O1 (stereo unspecified)	4%
OCC(O)C(O)C(O)C(O)C(O)CO (stereo unspecified)	3%
C=CC1=C(C)/C(=C/c2[nH]c(Cc3[nH]c(/C=C4\NC(=O)C(C)=C4C=C)c(C)c3CCC(=O)O)c(CCC(=O)O)c2C)NC1=O	-19%

A second format for some results above:
| EPAC1 ag val | SMILES |
| --- | --- |
| -34%[inhibitor] | CN(C)c1ccc(-c2cncnc2-n2ccnc2)cc1 |
| -21% | COc1cccc(-c2ccc3ncnc(N4CCOCC4)c3c2)c1 |
| 0% | COc1ncccc1C(=O)N1CCOc2ccc(C(O)C(c3ccccc3)c3ccccc3)cc2C1 (stereo unspecified) |
| ? | COCCn1c(=O)c(-c2cccc(C#N)c2)nc2cnc(N3CCOCC3)nc21 |

The listing continues.
SMILES	EPAC1 ag val
O=S(=O)(c1ccccc1)N1CCC2(CCCN(c3ccncc3)C2)CC1	6%
COC(=O)c1c(OCc2ccccn2)cc(=O)n2c1CCN(C(=O)c1n[nH]c3c1CCCC3)CC2	-10%
CCCCCCCC/C=C\CCCCCCCC(=O)OC[C@@H](O)[C@H]1OC[C@H](O)[C@H]1O	-54%[inhibitor]
c1ccc(-c2csc(-c3nc4ccccc4[nH]3)n2)cc1	?
COc1ccc(CN2CCc3nnc(CNC(=O)c4cc(C)oc4C)n3CC2)c2ccccc12	-2%
CN(C)c1ccc(-c2ccc3ncnc(-n4ccnc4)c3c2)cc1	-26%
COc1ccc(CN2CCOc3ccc(CN4CCC(Oc5cccnc5)CC4)cc3C2)c(F)c1	-12%
CC(C)COCC(CN(Cc1ccccc1)c1ccccc1)N1CCCC1 (stereo unspecified)	2%&18%&-16%&-4%
COc1ccccc1N1CCN(CCCC(=O)c2ccc(F)cc2)CC1	12%
Cc1ccc(O)c(-n2nc3ccccc3n2)c1	-28%
CCCCCCCCCCCCCCCC(=O)C(F)(F)F	-52%[inhibitor]
COc1cc2c(cc1OC)OC(C)(C)C=C2	-19%
Cc1cccc2cc(CN(CC3CCCO3)C(=O)C3CC3)c(N(C)C)nc12 (stereo unspecified)	-12%
CC(C)(C)CC(C)(C)c1cc(Cc2cc(C(C)(C)CC(C)(C)C)cc(-n3nc4ccccc4n3)c2O)c(O)c(-n2nc3ccccc3n2)c1	-18%
CCOC(=O)C[C@H]1c2cc(F)ccc2S(=O)(=O)N1c1cccc(OC)c1	7%
C[C@H](N)C(=O)O	4%
CN[C@@H]1CCc2[nH]c3ccc(C(N)=O)cc3c2C1	-5%
NS(=O)(=O)C#Cc1ccccc1	-3%
CC(=O)NCCNC(=O)c1cnn(-c2nccc(-c3cc(C)sc3C)n2)c1C	-11%
NCc1ccc(S(N)(=O)=O)cc1	4%&-25%
CC(=O)c1ccc(C(=O)NCc2nc(-c3ccccc3NC(=O)c3cc(C)oc3C)oc2C)cc1	9%
O=c1c(O)c(-c2ccccc2)oc2ccccc12	-19%
COc1ccc2c(c1)OC1(O)COc3cc(OC)c(OC)cc3C1=C2 (stereo unspecified)	-9%
O=C(O)c1ccccc1OP(=O)(O)O	15%
COc1cc(CN2CCOc3ccc(CN4CCC(Oc5cccnc5)CC4)cc3C2)ccc1F	-16%
COc1ccc(CC2c3cc(OC)c(OC)cc3CC[N+]2(C)CCC(=O)OCCCCCOC(=O)CC[N+]2(C)CCc3cc(OC)c(OC)cc3C2Cc2ccc(OC)c(OC)c2)cc1OC (stereo unspecified)	?
COc1c2occc2c(OC)c2c(=O)cc(C)oc12	-20%&4%
Cc1ccc2c(C)ccnc2c1	22%
N#Cc1ccc(CN2CCC3(CC2)CCN(C(=O)c2cnccn2)CC3)cc1	-47%[inhibitor]
CN1CC[C@@]2(CCCN(C(=O)c3cccc(F)c3)C2)C1	-29%
CC1(C)CC[C@]2(C)CC[C@@]3(C)C(=CCC4[C@@]5(C)CCC(O)C(C)(C)C5CC[C@@]43C)C2C1 (stereo partly specified)	1%
NC(N)=NN=Cc1c(Cl)cccc1Cl	-2%
O=[n+]1ccn([O-])c2ccccc21	-39%[inhibitor]
O=c1c2cc(O)c(O)cc2oc2cc(O)c(C3OC(CO)C(O)C(O)C3O)c(O)c12 (stereo unspecified)	-17%

Pulled by structure from the entries so far (3):
SMILES	EPAC1 ag val
O=C(O)c1ccccc1OP(=O)(O)O	15%
Cc1ccc2c(C)ccnc2c1	22%
COc1c2occc2c(OC)c2c(=O)cc(C)oc12	-20%&4%
